Screens: PubChem BioAssay, ICCB-Longwood Screening Facility, Harvard Medical School
Ecoli growth – inhibitors of Escherichia coli growth; OD600, 23 h; stronger effect = lower value; OD600 absorbance (test concentration not listed); 0.21% of 330,000 active; AID 1053175;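 active = OD600 absorbance below the run mean of sample wells minus 3.6 SD, in any replicate, cut at about 0.56 in these data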;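 also: stock transfer was 300 nL into about 60 µL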
The depositor's hits bear a star; & = joins results of further samples. Not all compounds are listed (hit frequency here may not be typical).

compound	Ecoli growth
CCc1ccc(C2CC=C(C(=O)O)C(c3ccccc3)N2S(=O)(=O)c2ccc(C)cc2)cc1 (stereo unspecified)	0.7
COc1c2ccc(OCCC(C)=CC(=O)C=C(C)C)cc2nc2occc12	0.66
CC1OC(OC2C(CO)OC(OC3C(CO)OC(O)C(O)C3O)C(O)C2O)C(O)C(O)C1NC1C=C(CO)C(O)C(O)C1O (stereo unspecified)	0.68&0.7
Cc1occc1C(=O)NN=CC1=C(N2CCOCC2)/C(=C\c2ccc(Cl)cc2)CC1	0.71
CN1C(=O)C(=CC(=O)c2cccs2)c2ccccc21	0.68
CCOC1OC(C(=O)N2CCCCCCC2)=CC(c2ccc(C(F)(F)F)cc2)C1CCCO (stereo unspecified)	0.72&0.67
NC(=O)C1=CC(c2coc3ccccc3c2=O)CC(OCCCCO)O1 (stereo unspecified)	0.69&0.67
COc1ccc(C=CC(=O)Nc2cc(S(=O)(=O)N3CCCCC3)ccc2N2CCCCC2)cc1OC	0.7
O=C(CC=NOCc1c(Cl)cccc1Cl)Oc1ccc(Cl)cc1Cl	0.74
CCOc1cc(C=NNC(=S)Nc2ccccc2C(F)(F)F)ccc1OCC(=O)N1CCOCC1	0.69
CCN1C(=O)C2C(c3ccc(SC4CCCCC4)cc3)N3CCC[C@@]3(C(=O)OC)C2C1=O (stereo partly specified)	0.7
CCOC(=O)NN=C1CCS(=O)(=O)c2ccc(Cl)cc21	0.67

compound	Ecoli growth
COc1cccc(C(=O)OC2C(Cc3ccccc3)NS(=O)(=O)C3CC4C=C[C@]23O4)c1 (stereo partly specified)	0.69&0.71
CC(=NNS(=O)(=O)c1ccc(C)cc1C)c1c[nH]c2ccccc12	0.6
CCOC(=O)C1C2COc3ccccc3C2N2C(=O)c3cc(OC)c(OC)cc3NC(=O)[C@@]12C (stereo partly specified)	0.72
Cn1c(N=Cc2c(O)ccc3ccccc23)nc2ccccc21	0.71
CCC12CN3CCN(CC(C3)C1=NNC(=O)c1ccc(Cl)cc1)C2	0.68
CC(=O)C1C(c2cccc(C(F)(F)F)c2)NC(=O)N(Cc2ccccc2)C1C (stereo unspecified)	0.66
Fc1ccc(NC(=S)NN=Cc2ccc(F)c(F)c2)c(F)c1	0.72
O=S(=O)(c1ccccc1)[C@@]1(c2ccc(Br)cc2)CC2ON=C(c3cccc(Br)c3)C2C1 (stereo partly specified)	0.73
Cc1ccc(-c2cc(C(=O)NN=Cc3cnn(C)c3C)c3ccccc3n2)cc1C	0.7
CC(NC(=O)OCc1ccccc1)C(=O)NC(Cc1c[nH]c2ccccc12)C(=O)O (stereo unspecified)	0.72
O=C(CNC(=O)C1COc2ccccc2O1)NN=Cc1ccc(Br)cc1 (stereo unspecified)	0.61
CC(=NNC(=S)NCc1ccccc1)c1ccccc1	0.66

compound	Ecoli growth
S=C(N=c1sccn1Cc1ccccc1)NC1CC1	0.7
COC(=O)[C@]1(CC(C)C)NC(c2ccc(-c3ccc(F)cc3)c(OC)c2)C2C(=O)N(C)C(=O)C21 (stereo partly specified)	0.7
C=C1CC(O)C2C(C)C(=O)OC2C2C1CC(O)C2C (stereo unspecified)	0.69
COc1ccc(C(=O)C2CC[C@](C)(C(=O)O)C2(C)C)cc1 (stereo partly specified)	0.71
COc1ccc(C(=O)NN=Cc2ccc(N(C)c3ccccc3)cc2)cc1	0.66
O=C(NN=Cc1cccc2ccccc12)c1cccnc1	0.68
COCCCNC(=O)c1c(N)n(N=Cc2cccs2)c2nc3ccccc3nc12	0.76
O=[N+]([O-])c1ccc(C=NN=Cc2ccc([N+](=O)[O-])o2)o1	0.56
O=C(C1=CC(C2CC2)CC(OCc2ccc(CO)cc2)O1)N1CCOCC1 (stereo unspecified)	0.69&0.66
O=C(NN=Cc1cccn1-c1ccc([N+](=O)[O-])cc1)c1cccnc1	0.64
Cc1nn(C)cc1C=NO	0.73
O=C(ON=C(c1ccccc1)c1ccccn1)c1cccc2ccccc12	0.68

compound	Ecoli growth
COc1ccc(C(N)=NOC(=O)C=Cc2ccccc2)cc1	0.72
Cc1ccc(S(=O)(=O)NN=Cc2cc([N+](=O)[O-])ccc2Cl)cc1	0.68
O=C(COc1ccc(C=NNC(=O)c2ccc(O)cc2)cc1)Nc1ccc([N+](=O)[O-])cc1	0.69
O=C(NN=Cc1ccc(N2CCOCC2)o1)c1cccc(F)c1	0.69
COc1ccc2nc(C)cc(SCC(=O)NN=Cc3ccc(O)cc3O)c2c1	0.68
CCC1=C(OC(=O)N(CC)CC)N2C(=O)OC(=NCCc3c[nH]c4ccccc34)[C@]2(Cc2ccccc2)C2C1=CCC1C(=O)N(C)C(=O)C12 (stereo partly specified)	0.71
C/C(C=NNC(=O)CCn1nnc2ccccc21)=C\c1ccccc1	0.7
COc1ccc2c(c1[N+](=O)[O-])CCCC2=NOC(=O)c1cccc2ccccc12	0.8
O=C(O)c1cccc(-c2ccc(C=NNc3ccc([N+](=O)[O-])cc3)o2)c1	0.73
CCN1C(=NCCCOC(C)C)NC(c2ccccc2)C(C(=O)OC)C1C (stereo unspecified)	0.66
CC(=NNC(N)=O)C1CC(CC(C)C)C(=O)O1 (stereo unspecified)	0.7
Clc1cc(-c2ccc(C=Nn3cnnc3)o2)ccc1Br	0.73

compound	Ecoli growth
CCCOc1ccc(-c2c(C(=O)NN=Cc3ccccc3OCC)nnn2-c2nonc2N)cc1	0.7
COc1ccc(C=NNC(=O)CNC(=O)COc2ccccc2)cc1	0.66
O=C(NN=Cc1cccnc1)c1ccccc1Br	0.64
COc1ccc(C=NNc2nc(C)cc(=O)[nH]2)cc1OC	0.61
CCOC(=O)C1C2COc3cc(OC)ccc3C2N2C(=O)CN(Cc3ccc(Cl)cc3)C(=O)[C@@]12C (stereo partly specified)	0.65
COC(=O)c1[nH]c(C)c(C(O)=C2C(=O)C(=O)N(CCN(C)C)C2c2ccccc2OC)c1C (stereo unspecified)	0.7
C=CCN1C(=O)/C(=C/C(=O)OC)SC1=NNC(=O)c1ccccc1	0.7
Cc1ccc(NC(=O)CCC(=O)NN=Cc2ccc([N+](=O)[O-])o2)cc1C	0.65
O=C(NN=Cc1ccc(Cl)cc1)C1CC12CCC2 (stereo unspecified)	0.68
COc1cc(C=NNc2ccccc2[N+](=O)[O-])cc(OC)c1O	0.74
CC(=NNC(=O)CSCc1ccc([N+](=O)[O-])cc1)c1ccccc1O	0.69
Cn1ccccc1=Nc1cccc[n+]1C	0.69

compound	Ecoli growth
COc1cc(C2c3cc4c(cc3C(O)C3COC(=O)C23)OCO4)cc(OC)c1O[Si](C)(C)C(C)(C)C (stereo unspecified)	0.7
Cn1cc(C=Nn2cnc3sc4c(c3c2=O)CCCC4)c2ccccc21	0.73
O=C(NN=Cc1ccc(F)cc1)c1cc(-c2ccccn2)nc2ccccc12	0.72
CC(=NNc1cc(N2CCOCC2)nc(C)n1)c1ccc(F)cc1	0.72
C#CCOCCOCCOCCNc1nc(N2CCN(C(=O)C(CCCCN)n3cc(C(N)CC(C)C)nn3)CC2)nc(N2CCN(C(=O)C(Cc3cc4ccccc4[nH]3)n3cc(C(N)C(C)CC)nn3)CC2)n1 (stereo unspecified)	0.6
COc1ccc(OCc2ccc(C=NNC(=O)c3sccc3C)o2)cc1	0.65
Clc1ccc2c(NN=Cc3cccnc3)ccnc2c1	0.58
CCOc1cc(C=NNC(=O)C(=O)NC2CC2)cc(Br)c1O	0.66
Cc1ccc2c(c1)C(=NOS(=O)(=O)c1ccccc1)CCS2	0.67
COc1ccc(C=NNC(=O)c2cc(-c3ccccc3OC)nc3ccccc23)cc1COC(C)=O	0.75
COC(=O)NN=Cc1ccc(-c2ccccc2Cl)o1	0.69
NC(=O)NN=Cc1cccs1	0.6

compound	Ecoli growth
CC(C)NC(=O)C(=NO)c1ccccc1	0.64
NC(=NOC(=O)c1ccc(Br)cc1)c1cccc([N+](=O)[O-])c1	0.71
CCCCCCCCN1C(CC(=O)O)c2cc(C(F)(F)F)ccc2S1(=O)=O (stereo unspecified)	0.65
COc1cccc(C=NNC(=O)c2cc3cc([N+](=O)[O-])ccc3s2)c1O	0.69
CC(Oc1ccc(Cl)cc1)C(=O)NCCN1C(=O)SC(=Cc2cccnc2)C1=O (stereo unspecified)	0.68
COc1ccc(CNC(=O)CC2C(=O)N(C3CCCCC3)CC2Cc2ccccc2)cc1 (stereo unspecified)	0.7
CCCOc1ccc(-c2c(C(=O)NN=Cc3ccccc3)nnn2-c2nonc2N)cc1	0.65
COC(=O)[C@]12C(=O)NCC(CN1c1ccc(Cl)c(C)c1)N2C	0.68
O=C(NN=Cc1c[nH]c2ccccc12)c1ccc([N+](=O)[O-])cc1Cl	0.65
O=C(CN(CCc1ccccc1)S(=O)(=O)c1ccc(Cl)cc1)NN=Cc1ccc2c(c1)OCO2	0.67
O=C(ON=Cc1cccc([N+](=O)[O-])c1)C1CC1	0.67
O=C1CCCCC1=CNc1ccc(S(=O)(=O)Nc2ncccn2)cc1	0.69

compound	Ecoli growth
COc1ccc(Br)cc1C=NNc1ccccn1	0.7
C=CCn1c(=C2C(=O)N(CC)C(=S)N2c2ccccc2)sc(=C2SC(C)=C(C)N2CC)c1=O	0.71
CC1(C)Cc2ccccc2C(=NCCCCCC(=O)O)N1	0.64
COC(=O)c1ccc(-c2ccc(OC)c(C3C4C=CCC(C)C4C(=O)N3Cc3ccccc3)c2)cc1 (stereo unspecified)	0.71
COc1ccc(S(=O)(=O)N(C)CC2Oc3ccc(NS(=O)(=O)c4cccs4)cc3C(=O)N(C(C)CO)CC2C)cc1 (stereo unspecified)	0.72
COc1ccc(-c2cnnc(NN=Cc3ccc(-c4ccc([N+](=O)[O-])cc4)o3)n2)cc1	0.65
N#Cc1ccc(NN=Cc2ccccc2)c([N+](=O)[O-])c1	0.75
CCN1CC2C3C(=O)N(C)C(=O)C3[C@](C)(C1=O)N2C(=O)c1ccccc1 (stereo partly specified)	0.7
O=C(COc1ccc(Cl)cc1Cl)NN=Cc1ccc[nH]1	0.66
Cc1ccc(CSCC(=O)NN=Cc2ccc(OCC(=O)Nc3ccc(C)cc3)cc2)cc1	0.79
CC(=NNC(=O)c1ccc(-c2ccccc2)cc1)c1cccc(N)c1	0.72
COc1cc(C=NNC(=O)C23CC4CC(CC(C4)C2)C3)cc(Br)c1O	0.69

compound	Ecoli growth
COc1ccc(C=NN=Cc2ccc(OC)cc2)cc1	0.72
CCOC(=O)C1C2COc3ccc(Br)cc3C2N2C(=O)c3ccc(C)cc3NC(=O)[C@@]12C (stereo partly specified)	0.69
CC1CCCCC1=NNC(=S)Nc1ccccc1 (stereo unspecified)	0.63
CCOC(=O)NN=Cc1cn(Cc2ccc(Cl)cc2)c2ccccc12	0.68
C=CCNC(=S)NN=Cc1ccc(-c2cccc([N+](=O)[O-])c2)o1	0.73
O=C1C=CCC(C=Cc2ccccc2)O1 (stereo unspecified)	0.66
CCC1S/C(=N/N=Cc2ccco2)NC1=O (stereo unspecified)	0.7
Cc1cccc(C=NNC(=O)C(C)Nc2cccc3ccccc23)n1 (stereo unspecified)	0.67
CC(=NNC(=S)Nc1c(C)cccc1C)c1ccc(OC(F)F)cc1	0.7
C[n+]1cccc(CNC(=O)C=NO)c1	0.66
O=C(NN=Cc1ccccc1)c1ccco1	0.7
CC(=NNC(=O)c1ccc(Cn2cc(Br)cn2)o1)c1cccc(NC(=O)C(C)(C)C)c1	0.66

The last three compounds of the section above come first, to join the parts.
compound	Ecoli growth
C[n+]1cccc(CNC(=O)C=NO)c1	0.66
O=C(NN=Cc1ccccc1)c1ccco1	0.7
CC(=NNC(=O)c1ccc(Cn2cc(Br)cn2)o1)c1cccc(NC(=O)C(C)(C)C)c1	0.66
Cc1cccc(NN=Cc2ccncc2)c1	0.65
CCN(CC)c1ccc(C=NNC(=O)c2c[nH]c3ccccc23)cc1	0.66
CCOC(=O)C1C2COc3ccc(Br)cc3C2N2C(=O)N(c3ccc(Cl)cc3)C(=O)[C@@]12C (stereo partly specified)	0.72
CCCCOc1ccc(C=CC(=O)NC2=Nc3ccccc3NC(C)=C2C(=O)OCC)cc1OC	0.73
COc1ccc(C=Nn2cnnc2SCc2ccc(OC)cc2)cc1	0.7
CCC(=O)N1CC2(CC(c3cccc([N+](=O)[O-])c3)=NO2)CC1C(=O)NCC(N)=O (stereo unspecified)	0.7
O=C1CC2c3c(cccc3CN1Cc1ccccc1)CC(O)C2O (stereo unspecified)	0.7
Cc1cccc(NCC(=O)NN=Cc2cccn2C)c1	0.68
ON=C1CCc2nonc2C1=NO	0.7
CCOc1ccc(C=NNC(=O)c2cc3c(OC)cc(OC)cc3[nH]2)cc1OC	0.65
Cc1ccccc1NC(=S)NN=CC(C)c1ccccc1 (stereo unspecified)	0.7
CC(Cn1nc([N+](=O)[O-])cc1C)=NNC(=O)COc1ccccc1[N+](=O)[O-]	0.67
CC(C)(OC1OC(CO)C(O)C(O)C1O)C1Cc2cc3ccc(=O)oc3cc2O1 (stereo unspecified)	0.69

Compounds above that have a thiophene ring, fused or not:
compound	Ecoli growth
CN1C(=O)C(=CC(=O)c2cccs2)c2ccccc21	0.68
COCCCNC(=O)c1c(N)n(N=Cc2cccs2)c2nc3ccccc3nc12	0.76
Cn1cc(C=Nn2cnc3sc4c(c3c2=O)CCCC4)c2ccccc21	0.73
COc1ccc(OCc2ccc(C=NNC(=O)c3sccc3C)o2)cc1	0.65
NC(=O)NN=Cc1cccs1	0.6
COc1cccc(C=NNC(=O)c2cc3cc([N+](=O)[O-])ccc3s2)c1O	0.69
COc1ccc(S(=O)(=O)N(C)CC2Oc3ccc(NS(=O)(=O)c4cccs4)cc3C(=O)N(C(C)CO)CC2C)cc1 (stereo unspecified)	0.72
